D2 ag: agonists of human D2 dopamine receptor (beta-arrestin) | P14416 | DiscoveRx PathHunter D2 beta-arrestin, luminescence, 90 min; 100% = 57 uM dopamine signal | activation, % (test concentration not listed) | hit rate 0.084% among 360,000; in the data active = activation above about 40%; inconclusive = about 15% to 40%; inactive = below about 15%; note: compound concentration not given in the record; the text of the record calls up to 30% inactive
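Agonist mode: compounds alone added to overnight-plated D2 PathHunter cells for 90 min at 37 C, with 57 uM final dopamine (EC100) defining full response. Beta-arrestin recruitment detected by chemiluminescent reagent, read after 1 h at ambient temperature.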
PINK1 modulator: changes PINK1 expression; hit rate 0.2% among 410,000; PINK1 immunofluorescence, high-content cytometry, 24 h; Potency, µM (titrated, usually from 76.6 µM), for inactives: top-dose activation (PINK1 increase), actives largely listed as activators; active = well fitted activation curve with a large enough effect; inconclusive = small, poorly fitted or top-dose-only effect; inactive = flat fitted curve, though single readings scatter; cell line not stated here;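 note: potency is the fitted concentration of half-maximal effect; % of control where 0% means no effect; nearly all actives have a fitted effect of over 65% in size; a mitochondrial uncoupler was the plate control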
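Stable cell line, 250 cells/well, 12 h attachment; compounds pinned at 5 concentrations, 24 h; CCCP control. Fixed with nuclear dye, primary antibodies 12 h at 10 degrees C, secondary plus cell stain; laser-scanning cytometer read.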
CtBP-E1A inh: CtBP/E1A binding inhibition | AlphaScreen GST-E1A/His-CtBP binding, 1536-well; stronger effect = lower value; control for the full effect not named in the record | activity change, % (test concentration not listed) | hit rate 0.49% among 340,000; in the data active means activity change below about -65%; inconclusive means about -30% to -65%; inactive means above about -30%; note: % is set by controls: 0 for no effect and ±100 for the full control effect; compound concentration not given in the record
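Protein mix (5X: 125 nM each GST-E1A, His-CtBP) was incubated with pinned compound 2 h at 37 deg C in dark, in 50 mM Tris pH 8.0 buffer with 300 mM NaCl. Glutathione donor and nickel acceptor beads followed; AlphaScreen signal read after 1 h.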
D2 PAM: potentiates the human D2 dopamine receptor allosterically; AID 624464; P14416; DiscoveRx D2 beta-arrestin cells, luminescence, 90 min; 100% = 57 uM dopamine signal; hit rate 0.23% among 360,000; potentiation, % (concentration not given with the values); active = potentiation of 50% or more; inconclusive = 30% to 50%; inactive = 30% or less;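 note: compound concentration not given in the record; tested on top of an EC20 dose of dopamine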
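PathHunter D2 cells, attached overnight at 37 deg C, received compound in DMSO plus dopamine at EC20 (50 nM final) for 90 min at 37 deg C. Beta-arrestin recruitment was read as luminescence after 1 h with detection reagent at ambient temperature.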
Six1-Eya2 inh: inhibitors of human Six1/Eya2 interaction | AlphaScreen GST-Six1/His-Eya2 binding, biochemical; stronger effect = lower value; control for the full effect not named in the record | AID 651725 | Q15475+O00167 | hit rate 0.56% among 360,000 | activity change, % (concentration not given with the values); in the data active = activity change below about -65%; inconclusive = about -30% to -65%; inactive = above about -30%; note: % is set by controls: 0 for no effect and ±100 for the full control effect
Target sequence (O00167 whole entry, looked up): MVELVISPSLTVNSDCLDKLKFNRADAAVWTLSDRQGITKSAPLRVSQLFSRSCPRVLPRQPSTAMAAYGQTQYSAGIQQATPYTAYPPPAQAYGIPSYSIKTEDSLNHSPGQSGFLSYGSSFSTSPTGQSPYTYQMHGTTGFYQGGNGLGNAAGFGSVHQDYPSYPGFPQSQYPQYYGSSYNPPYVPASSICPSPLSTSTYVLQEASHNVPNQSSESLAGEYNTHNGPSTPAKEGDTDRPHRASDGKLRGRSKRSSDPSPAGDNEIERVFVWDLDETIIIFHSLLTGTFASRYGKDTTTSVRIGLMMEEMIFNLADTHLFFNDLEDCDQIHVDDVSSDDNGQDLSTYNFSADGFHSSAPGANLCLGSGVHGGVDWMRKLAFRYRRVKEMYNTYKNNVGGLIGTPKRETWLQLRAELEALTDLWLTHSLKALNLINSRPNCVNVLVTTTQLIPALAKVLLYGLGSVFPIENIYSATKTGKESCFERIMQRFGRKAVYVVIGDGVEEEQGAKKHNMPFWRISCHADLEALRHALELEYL
Target sequence (Q15475 whole entry, looked up): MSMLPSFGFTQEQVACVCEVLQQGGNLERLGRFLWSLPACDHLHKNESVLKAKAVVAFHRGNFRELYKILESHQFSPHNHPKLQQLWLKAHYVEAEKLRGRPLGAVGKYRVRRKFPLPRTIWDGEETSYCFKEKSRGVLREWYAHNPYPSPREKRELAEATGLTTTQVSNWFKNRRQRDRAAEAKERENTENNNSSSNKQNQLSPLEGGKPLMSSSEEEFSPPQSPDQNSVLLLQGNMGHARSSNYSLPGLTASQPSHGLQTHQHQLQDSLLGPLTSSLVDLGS
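AlphaScreen luminescence read after one hour at 37 °C in darkness. Pin-transferred compounds met GST-Six1 and His-Eya2 protein (5X stock 250 nM/500 nM) plus glutathione donor and Ni-chelate acceptor beads (5X, 50 ug/mL).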
TRPML1 ag: agonists of human TRPML1 channel; Q9GZU1; TRPML1-expressing cells, Ca2+ dye fluorescence, FDSS; host cell line not named in the record; reference of the full effect not given here; activation, % (test concentration not listed); hit rate 0.12% among 410,000; AID 624414; in the data active = activation above about 50%; inconclusive = about 30% to 50%; inactive = below about 30%; note: 0% is about no effect; the text of the record puts the active cut at 80%
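Agonist activity was taken from a 110 s kinetic Ca2+ dye read on the FDSS after pinning compounds onto TRPML1-DL cells. The cells were seeded at 1,500/well with Tet inducer, incubated about 16 h, then dye-loaded at room temperature.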
The depositor's hits bear a star; ? = inconclusive; nt = no result given; [ ] = dose if it differs, or a comment.

SMILES | D2 ag | PINK1 modulator | CtBP-E1A inh | D2 PAM | Six1-Eya2 inh | TRPML1 ag
Cc1c(NC(=O)C(C)OC(=O)/C=C/c2ccc(OC(F)F)cc2)c(=O)n(-c2ccccc2)n1C (stereo not drawn) | 0.8 | 1.7% | -2 | -19 | 2 | -0.5
Cc1cccc(C)c1OCC(=O)Nc1oc(-c2ccccc2)c(-c2ccccc2)c1C#N | -1.3 | ? | -3 | 2 | -7 | 1.4
COc1cc2c(cc1NC(=O)COC(=O)Cn1cnc3ccccc31)oc1ccccc12 | 3.9 | 0.0% | -3 | -5 | -19 | 0.7
O=C(Cn1cnc2c(nnn2-c2cccc(Cl)c2)c1=O)NCc1ccccc1 | -5.1 | 5.8% | 1 | -4 | 1 | 0.0
CN(C)c1ccc(/C=N/NC(=O)c2nonc2N)cc1[N+](=O)[O-] | -1.4 | 1.5% | nt | -3 | -6 | -0.6
O=C(O)c1cccc(N2C(=O)c3cccnc3C2=O)c1 | 4.9 | nt | -1 | 27 | 4 | -0.1
O=C(/C=C/c1ccco1)Nc1ccc(Oc2ccc(Cl)cc2)cc1 | 0.8 | 16% | -3 | -5 | -11 | -0.5
CCC(C)(C)c1nnc(NC(=O)c2cccc([N+](=O)[O-])c2)s1 | -3.4 | 1.9% | -7 | -5 | -21 | -0.4
COc1ccc(/C=C/C(=O)N2CCCc3ccccc32)cc1 | -2.5 | 1.8% | -10 | -9 | -6 | 1.8
CSc1nc2ccc(NC(=O)C3=NNC(=O)CC3)cc2s1 | -0.8 | -0.2% | nt | 1 | -3 | 1.0
CC(=O)NCCNc1nc2cc(-c3ccc4c(ccn4C)c3)sc2c(=O)n1C | -3.5 | ? | 1 | 1 | -6 | -0.7
CCOC(=O)/C=c1/s/c(=C/c2ccc3cc(OC)ccc3c2)c(=O)n1CC(=O)NCC1CCCO1 (stereo not drawn) | -0.9 | 5.1% | 4 | -4 | 1 | 1.0
Nc1nnnn1CC(=O)OCc1cccc(Br)c1 | -0.1 | -3.7%[38.3 µM] | 8 | -13 | 6 | 0.3
O=C(NCc1ccccc1)c1cc(C2CCCCN2C(=O)c2cccs2)on1 (stereo not drawn) | -4.0 | 3.0% | -4 | -13 | 3 | -0.7
CC(C)Cn1c2c(c(O)c(C(=O)Nc3nccs3)c1=O)CCCC2 | -1.5 | 1.4% | 5 | -5 | 2 | 1.5
O=[N+]([O-])c1ccc(CSc2nnc3ccccn23)cc1 | -2.6 | 0.4% | 6 | -1 | 4 | 0.0
COc1ccc(CC(=O)NCc2nnc(SCC(=O)c3ccc(OC)cc3)n2C)cc1 | 0.4 | -1.4% | 1 | 1 | -1 | -0.6
CCc1cc(=O)oc2cc(C)cc(OCC(=O)N3CCC[C@@H]3C(=O)O)c12 | -2.6 | -0.2% | 1 | -6 | 1 | nt
CCOc1ccc(C(=O)CC(NCc2cccs2)C(=O)O)cc1 (stereo not drawn) | -3.8 | 2.4% | -16 | -20 | 13 | -0.7
CC(C)(CO)NC(=O)CC1C(=O)NCCN1CC(c1ccccc1)c1ccccc1 (stereo not drawn) | -3.6 | -0.5% | 5 | -4 | -3 | 0.1

A portion from further up, as a working copy:
SMILES | D2 ag | PINK1 modulator | CtBP-E1A inh | D2 PAM | Six1-Eya2 inh | TRPML1 ag
CCOc1ccc(C(=O)CC(NCc2cccs2)C(=O)O)cc1 (stereo not drawn) | -3.8 | 2.4% | -16 | -20 | 13 | -0.7
CC(C)(CO)NC(=O)CC1C(=O)NCCN1CC(c1ccccc1)c1ccccc1 (stereo not drawn) | -3.6 | -0.5% | 5 | -4 | -3 | 0.1

(next part)
SMILES | D2 ag | PINK1 modulator | CtBP-E1A inh | D2 PAM | Six1-Eya2 inh | TRPML1 ag
NC(=O)C1=C[C@H](C2CCCCC2)C[C@H](OCc2ccc(CO)cc2)O1 | -0.4 | 1.8% | 2 | -6 | -2 | -0.4
CCOC(=O)C1(C)CCCN(C(=O)c2ccc3ccccc3c2)C1 (stereo not drawn) | -5.0 | 1.0% | 0 | -6 | 0 | -1.2
Cc1c(C(=O)N2CCN(c3ccc(F)cc3)CC2)sc2nc(-c3ccccc3)cn12 | -1.4 | 7.5% | -1 | 3 | 1 | 1.3
Cc1cc(N2CCCCC2)n2ncc(-c3ccc(Cl)cc3)c2n1 | -1.1 | 6.3%[38.3 µM] | 60 | 1 | 35 | -0.4
CCC(=O)Nc1ccc(Cl)c(NC(=S)NC(=O)c2ccco2)c1 | -6.3 | -1.5% | 0 | -4 | 2 | 1.3
O=C(NCc1ccccc1)C1=C[C@H](C2CCCCC2)C[C@H](OCc2ccc(CO)cc2)O1 | 5.1 | 2.8% | -9 | -37 | -5 | 1.5
Cc1nn(C)c(Oc2ccccc2)c1[N+](=O)[O-] | -1.8 | nt | -1 | -3 | 5 | 0.7
O=C(COc1ccccc1)Nc1ccccc1C(=O)NCc1ccco1 | 4.5 | 1.4% | -7 | 10 | -2 | 3.3
O=c1c2ccccc2cnn1-c1nc2ccccc2[nH]1 | -3.0 | -2.7% | 3 | -5 | 1 | 1.9
COc1cc2nc(CN3CCC(Cc4ccccc4)CC3)[nH]c(=O)c2cc1OC | -0.6 | 2.5% | 3 | -30 | 6 | -0.4
O=C(NN=C1CCCCCC1)C(=O)Nc1cccc(Br)c1 | 0.0 | 2.1% | 2 | -4 | -3 | -0.1
CCCc1nc2ccccc2c(C(=O)OCC(=O)NC2CC2)c1CC | 10 | -0.5% | 5 | -4 | 1 | 0.7
Oc1ccccc1-c1nnc(-c2ccc(C(F)(F)F)cc2)o1 | 5.7 | 0.4% | 6 | -10 | 10 | 1.9
Cc1cc(C)n2nc(SCN3C(=O)c4ccccc4C3=O)nc2n1 | -2.4 | 1.0%[38.3 µM] | 1 | -3 | 1 | 0.2
COC(=O)CSc1cnc2ccccc2n1 | -5.0 | -1.6% | -1 | -23 | 6 | -0.7
CC(C)(C)c1ccccc1NC(=O)CN1C(=O)NC2(CCCC2)C1=O | -5.8 | 0.5% | 1 | -5 | 1 | 0.5
COC(=O)c1c(-c2ccc(OC)cc2)sc2cc(OC)c(OC)cc12 | -3.1 | 3.0% | 23 | -1 | 12 | 0.6
CCOc1ccc(C(=O)CCNC(Cc2cnc[nH]2)C(=O)O)cc1 (stereo not drawn) | -3.2 | 4.3%[38.3 µM] | -66* | -8 | ? | 0.6
CCOc1ccc(C(=O)/C=C/Nc2ccc(S(=O)(=O)N=C(N)N)cc2)cc1 | 2.0 | 11% | -1 | 2 | -6 | -0.5
CS(=O)(=O)N1CCC(Oc2cccc(C(=O)NCCCC3CCCC3)c2)CC1 | -0.7 | 0.2% | 5 | -10 | -9 | 2.0

An excerpt from above in order of molar mass, high to low.
SMILES | D2 ag | PINK1 modulator | CtBP-E1A inh | D2 PAM | Six1-Eya2 inh | TRPML1 ag
CC(C)(C)c1ccccc1NC(=O)CN1C(=O)NC2(CCCC2)C1=O | -5.8 | 0.5% | 1 | -5 | 1 | 0.5
Cc1cc(C)n2nc(SCN3C(=O)c4ccccc4C3=O)nc2n1 | -2.4 | 1.0%[38.3 µM] | 1 | -3 | 1 | 0.2
CCOc1ccc(C(=O)CCNC(Cc2cnc[nH]2)C(=O)O)cc1 (stereo not drawn) | -3.2 | 4.3%[38.3 µM] | -66* | -8 | ? | 0.6

(more compounds)
SMILES | D2 ag | PINK1 modulator | CtBP-E1A inh | D2 PAM | Six1-Eya2 inh | TRPML1 ag
CN(c1ccc([N+](=O)[O-])cc1/C=N/NC(=O)COc1ccccc1)C1CCCCC1 | -1.5 | 6.9% | 4 | -10 | 2 | 0.7
COc1ccccc1C1/C(=C(/O)c2ccccc2)C(=O)C(=O)N1CCO (stereo not drawn) | -4.9 | -1.2% | 5 | -5 | 3 | -0.6
Cc1sc2nc(CSCC(=O)N(C)c3ccccc3)[nH]c(=O)c2c1C | -3.5 | -0.7% | -5 | -15 | -6 | -0.7
CC(C)C(=O)NC(c1ccco1)c1ccc2cccnc2c1O (stereo not drawn) | -3.2 | -0.1% | -91* | -11 | -93* | -0.1
CCOc1ccc(S(=O)(=O)N2CCC(C(=O)NCc3ccncc3)CC2)cc1 | -1.7 | 0.2% | -1 | -12 | -1 | 0.2
OCc1ccc(-c2ccc3nccn3c2)cc1 | 4.4 | 0.3% | -12 | -9 | -10 | -0.3
Cc1c(N2CCCCC2)[nH]c2ccccc12 | -4.8 | 0.2% | 2 | -17 | -5 | -0.2
CCOC(=O)c1cc(-c2ccc(OC)cc2)n(CCC(=O)NC2CCN(Cc3ccccc3)CC2)c1C | 0.4 | -1.6% | nt | -16 | -1 | 2.0
CCOc1ccc(NC(=O)C/C(C)=N/NC(=O)COc2ccc(Br)cc2C)cc1 | -0.2 | 0.6% | 2 | -10 | -13 | -0.6
O=C(CNC(=S)NC(=O)c1ccc(F)cc1)c1ccccc1 | 2.3 | 4.0% | -20 | -5 | 7 | -1.5
CC(C)c1nc(CNC(=O)c2ccc(OC3CCN(Cc4ccccn4)CC3)cc2)cs1 | -7.3 | -1.0% | 5 | -13 | 1 | -0.8
C=CCn1c(-c2csc3c2CCC(C)C3)n[nH]c1=S (stereo not drawn) | 3.4 | -0.2% | -9 | -5 | -11 | 1.4
Cc1ccc(S(=O)(=O)NCCNC(C)c2ccc(Br)cc2)cc1 (stereo not drawn) | -7.6 | 11% | 26 | -31 | -2 | -0.3
Cc1cccc(C)c1OCC(=O)Nc1cccc(NC(=O)c2ccco2)c1 | -0.4 | 0.9% | -3 | 10 | -6 | 4.2
COc1cc(C2C3=C(CC(C)(C)CC3=O)N(C)C3=C2C(=O)CC(C)(C)C3)cc(Br)c1O | 4.8 | 1.1% | nt | -4 | 17 | 1.7
CCC(C)(C)NC(=O)CN(C(=O)CCC(=O)Nc1ccccn1)c1ccc(F)c(Cl)c1 | -3.4 | -0.2% | 5 | 24 | 2 | -0.9
CC(=O)c1ccc(/C=C/c2nc3ccccc3n2C)o1 | 2.1 | 1.0% | -16 | -1 | 15 | 1.3
CC(C)NC(=O)COC(=O)c1ccc(Oc2ccccc2)cc1 | -4.9 | -1.9% | 11 | -13 | 19 | -1.2
Cc1ccc(-c2c[n+](CC(=O)Nc3ccc(C)cc3C)c3n2CCC3)cc1 | -1.4 | 0.3% | -10 | -24 | -2 | 0.7
CCN(CC)S(=O)(=O)c1ccc(S(=O)(=O)N(CC(=O)Nc2ccccc2)Cc2ccco2)cc1 | 4.0 | -2.6%[38.3 µM] | -1 | 3 | 7 | 0.7
CC(CCc1ccccc1)NC(=O)c1cnc(Cl)c(Cl)c1 (stereo not drawn) | -3.3 | 1.4% | 11 | -11 | 6 | -0.5
CC(=O)Nc1nnc(-c2c(-c3ccccc3Cl)noc2C)o1 | -2.6 | 0.0% | -9 | -1 | -13 | 1.5
CCNC(=S)Nc1ccc(C)c(Cl)c1 | 0.1 | 0.1% | 2 | -4 | 1 | 0.4
CC(=O)c1ccc(-c2ccc(-c3cc(=O)oc4c(C(C)C)ccc(C)c34)cc2)cc1 | -2.5 | -0.8% | -1 | nt | 3 | 64*
CC1CN(C2CCN(C(=O)c3ccccc3)CC2)CC(C)O1 (stereo not drawn) | 1.2 | 0.1% | -3 | -9 | 4 | 0.0
O=C(c1ccc(C#CC2(O)CCCCC2)cc1)N1CCN(C(c2ccccc2)c2ccccc2)CC1 | -1.1 | -1.4% | -3 | -1 | -20 | 0.6
O=S(=O)(c1ccc(Br)cc1)N1CCN(c2ccccc2)CC1 | 5.9 | 5.0% | 1 | -1 | 3 | 1.3
